NPYLR7 ag: agonists of mosquito NPYLR7 receptor, primary screen, cell-based, Aedes aegypti, calcium fluorescence, mosquito biting behavior. Aedes aegypti neuropeptide Y-like receptor 7 (NPYLR7). HEK293T NPYLR7/Galpha15, GCaMP6s calcium fluorescence. activation, % at 10 µM. 270,000 compounds, 0.15% hits. AID 1259423, 2018; in the data active means activation above about 40%;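 further: 0% = vehicle and 100% = reference agonist at the receptor; some compounds past the cut are filed as inactive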
NPYLR7 ag max-min: second read-out of NPYLR7 ag, no call of its own (marks repeat the call); activation, %; measured here: Max-Min RFU normalised activation; some inactives read as strong as hits;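 span of the calcium signal over five minutes; 0% = vehicle and 100% = native peptide agonist; compound fluorescence can raise it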
* = called active by the depositor; & = joins results of further samples. An excerpt; count on the stated rates, not on these rows.

SMILES	NPYLR7 ag	NPYLR7 ag max-min
C=CCNc1nc2ccccc2s1	-2	-3
CCN(CC)CCn1c(C)c(C)n2c3c(=O)n(Cc4ccccc4C)c(=O)n(C)c3nc12	0	0
Cc1ccc(C)c(NC(=O)Cn2nc3c(=O)n(-c4ccc(Br)cc4)ccn3c2=O)c1	21	14
CC(=O)Nc1ccc(S(=O)(=O)N2CCN(c3nc(Cc4ccccc4)nc4c3c(C)nn4-c3ccccc3)CC2)cc1	7	13
CCC(CC)C(=O)ON=C(N)c1ccccc1	-4	7
O=C1C(=O)N(CCCN2CCOCC2)C(c2cccc([N+](=O)[O-])c2)C1=C(O)c1ccc(F)cc1 (stereo unspecified)	6	25
COc1cc2c(cc1OC)C(CNC(=O)C(C)C)N(C(=O)Nc1ccc(Cl)cc1)CC2 (stereo unspecified)	4	11
Cc1ccc2nc(SCC(=O)Nc3ccccc3)nc(=O)n2c1	2	0
COc1cccc(-c2cc(-c3ccc(C(=O)NCCSCc4ccco4)cc3)[nH]n2)c1	0	3
Cc1c(Cl)c([N+](=O)[O-])nn1CC(=O)N1CCCCCC1	6	6
COc1ccccc1CCC(=O)NC(C)c1cnn(-c2ccccc2C)c1C (stereo unspecified)	9	2
CCCN(CC(=O)N(Cc1cccn1C)C1CC1)C(=O)Nc1ccccc1C(F)(F)F	-1	1
Cc1cccc(CN(CCN2CCOCC2)CC(O)COc2ccccc2)c1 (stereo unspecified)	31	24
COc1ccc2c(c1)CCc1cc(CCC(=O)N3CCN(c4ccccc4)CC3)n(CCc3cccc(F)c3)c1-2	22	11
CC1Cc2ccccc2N1C(=O)C(=O)N1CCN(C)C2(CCN(C)CC2)C1 (stereo unspecified)	-3	-5
Cc1nc(C2CCCN(C(=O)c3ccc(=O)n(C)n3)C2)sc1C (stereo unspecified)	3	11
O=C1NC(=S)N/C1=C/c1cc(Cl)c(O)c(Cl)c1	17	15
O=C(O)C1CCCN1c1nc(Cc2ccc(F)cc2)ns1 (stereo unspecified)	0	10
CN(Cc1nc(Cc2ccccc2F)no1)CC1(N2CCOCC2)CCCCC1	1	-4
CCOC(=O)C(NC(=O)c1cccnc1)(NN1CCN(C)CC1)C(F)(F)F (stereo unspecified)	18	29
CCOc1ccccc1N1CCN(C(=O)COC)C(C)C1=O (stereo unspecified)	19	23
COc1cc(=O)n(-c2ccccc2)nc1C(=O)NC(c1ccccc1)c1ccccc1	1	0
O=C(NNS(=O)(=O)c1cccc(Cl)c1Cl)c1csc(N2CCOCC2)n1	8	3
O=C(CSc1nccc(=O)[nH]1)c1cc2ccccc2o1	-5	-4
Cc1cccc(N2CCN(c3c(C)c(C)nc4c(-c5ccccc5)cnn34)CC2)n1	-9	-11
CCN(C)c1nc(-c2ccc(F)c(Cl)c2)c2c(N)n(C)nc2n1	6	7
CCc1ccc(S(=O)(=O)Nc2ccc3c(c2)CCN3C(C)=O)cc1	-5&-5	-7&-6
CN(C)CC(C)(C)CNC(=O)C1CCCN1c1cc(Nc2cccc(Br)c2)ncn1 (stereo unspecified)	-1	-2
Cc1ccc2sc(NNC(=O)c3ccc(S(=O)(=O)N4CCc5ccccc5C4)cc3)nc2c1C	-3	-3
CCOC(=O)C1CCN(C(=O)c2cccc(Nc3c(Oc4ccc(C)cc4C)cnn(C)c3=O)c2)CC1	6	17

Sorted by length of the SMILES (highest first): part of the list above
SMILES	NPYLR7 ag	NPYLR7 ag max-min
Cc1ccc2sc(NNC(=O)c3ccc(S(=O)(=O)N4CCc5ccccc5C4)cc3)nc2c1C	-3	-3
COc1cc2c(cc1OC)C(CNC(=O)C(C)C)N(C(=O)Nc1ccc(Cl)cc1)CC2 (stereo unspecified)	4	11
CCCN(CC(=O)N(Cc1cccn1C)C1CC1)C(=O)Nc1ccccc1C(F)(F)F	-1	1
CN(Cc1nc(Cc2ccccc2F)no1)CC1(N2CCOCC2)CCCCC1	1	-4
COc1ccccc1CCC(=O)NC(C)c1cnn(-c2ccccc2C)c1C (stereo unspecified)	9	2
CCOc1ccccc1N1CCN(C(=O)COC)C(C)C1=O (stereo unspecified)	19	23
C=CCNc1nc2ccccc2s1	-2	-3

The listing continues:
SMILES	NPYLR7 ag	NPYLR7 ag max-min
C/C=C/c1cccc(/C=N\NC(=O)c2ccc(=O)[nH]n2)c1O	0	0
CCCCc1ccc(C(=O)N2CCN(c3nc(C)nc(C)c3Cc3cccc(C(F)(F)F)c3)CC2)cc1	-2	6
C=CC[C@H]1CC(C)=C[C@H](CC=C)N1C(=O)c1cnc2cccc(C)n2c1=O	10	8
COc1ccc(NC2CCCN(C(=O)c3ccccc3-n3cncn3)C2)cc1 (stereo unspecified)	6	4
CC(C)c1cc(C2CCN(C(=O)c3cccc(Cn4cccn4)c3)CC2)[nH]n1	-4	-6
Cc1cccc(-c2noc(CS(=O)Cc3ccccc3Cl)n2)c1 (stereo unspecified)	6	6
Cc1cccc(OCC(=O)N2CCOC(COCc3ccc(F)cc3Cl)C2)c1C (stereo unspecified)	28	31
CC(=O)NCC(=O)OCC(=O)N1c2ccccc2Sc2ccccc21	0	0
c1ccc(-c2nc[nH]c2-c2cccn2-c2ccccn2)cc1	20	11
Cc1cc(C(=O)NCCC2CN(Cc3ccco3)CCO2)n[nH]1 (stereo unspecified)	-3	-11
CC(=O)Nc1ccc(C(=O)N(C)Cc2nnc3n2CCCCC3)cc1	6	6
Cc1cc(C(=O)NCC2(O)CCOCC2)c(C)n1-c1cccc(Br)c1	-2	-5
CCc1cc(C(=O)N(CCN2CCCCC2)CC2CCCN(C3CCCC3)C2)n(C)n1 (stereo unspecified)	6	4
CCOc1cccc(CNS(=O)(=O)c2ccc3c(c2)n(C)c(=O)n3C)c1	-6	-9
c1ccc2oc(-c3nn4c(CN5CCCCC5)nnc4s3)cc2c1	11	10
Nc1cnc2nc(N)[nH]c(=O)c2c1	2	0
COc1ccccc1C(=O)N1CCC(n2c(=O)oc3ccc(C)cc32)CC1	6	5
CC(C)(C)P(=NC(=S)NN=Cc1cccnc1)(N1CCOCC1)N1CCOCC1	0	-1
CCN(C(=O)CN1C(=O)NC(CCSC)C1=O)C1CCS(=O)(=O)C1 (stereo unspecified)	0	0
CCc1nc2ccc(C(=O)NC(C)(C)C)cn2c1N(CC)Cc1cccc(Br)c1	7	20
CC(c1cccnc1)N1CCN(Cc2coc(-c3ccccc3)n2)CC1 (stereo unspecified)	3	2
Cc1sc2ccccc2c1-c1nccn1CCCn1ccnc1	26	19
CCCCc1ccc(-n2c(C)cn3c4c(=O)n(CCOC)c(=O)n(C)c4nc23)cc1	4	4
CCOc1ccc(C(C)C)cc1S(=O)(=O)NCCOc1ccc(-c2ccc(OC)cc2)nn1	-12	-18
COc1ccc(Cn2c(C)nc3c(c(=O)c4ccccc4n3C)c2=O)cc1	4	3
Cc1ccc(NC(=O)Cn2cnc3ncccc3c2=O)cc1	1	2
CCOC(=O)c1nn(-c2ccc(C)cc2)c(=O)c2c(NC(=O)c3ccc(C)cc3)scc12	-2	-2
CC(c1nc(C2CC2)no1)N1CC2CCCN(c3nnnn3C)C2C1 (stereo unspecified)	-1	1
COc1ccc(OC)c(C2SCCN2S(=O)(=O)c2cccc3ccccc23)c1 (stereo unspecified)	-4	-5
COc1ccccc1NC(=O)c1sc2ccccc2c1Cl	-5	-7

Other results:
Screens in order: NPYLR7 ag | NPYLR7 ag max-min
O=C(Nc1cccc(Cl)c1SC(F)F)C1CCCC1
→ 13 | 10
CCNC(=S)N1CCC(C(NC(=O)c2ccc3c(c2)OCO3)C(=O)N2CCCC2)CC1 (stereo unspecified)
→ -4 | -1
COc1ccc(CCN(Cc2ccc(C)s2)C(=O)CN(C(=O)Nc2ccc(C)c(C)c2)C2CC2)cc1OC
→ -1 | -8
O=C(c1cc(-c2ccc(F)cc2)nc2cc(-c3ccccc3)nn12)N1CCN(c2ccccc2F)CC1
→ 10 | 9
CC1CCCCC1NC1=NCCS1 (stereo unspecified)
→ -4 | -10
O=c1oc2ccc(Br)cc2cc1-c1nnc(Nc2ccccc2F)s1
→ -3 | -6
CC1(C(=O)NC2Cc3ccccc3C2)CCN1S(=O)(=O)c1ccccc1 (stereo unspecified)
→ 8 | 8
CC(C)c1ccc([C@H]2[C@@H]3CCCC=C3C(C#N)C(=N)C2(C#N)C#N)cc1 (stereo partly specified)
→ 22 | 16
CC(C)(C)NC(=O)N1CCN(C(C(=O)NCc2ccc(F)cc2)C2CCCC2)CC1 (stereo unspecified)
→ -6 | -2
COc1cccc(CC2CN(C(=O)c3ccc(S(N)(=O)=O)cc3)CCO2)c1 (stereo unspecified)
→ 9 | 6
CCc1cccc2c3c([nH]c12)CCC(NC(=O)Cc1ccccc1F)C3 (stereo unspecified)
→ 1 | -2
CCOC(=O)c1nn(C)c2c1CN(C(=O)c1ccc3c(c1)OCO3)CC2
→ 22 | 12
COC(=O)c1sccc1NS(=O)(=O)c1cc(F)ccc1F
→ 14 | 6
COc1cccc(CCNCc2c(C(=O)N3CCOCC3)nc3ccccn23)c1
→ -6 | 3
Clc1ccc(-c2ccc3nnc(-c4ccccc4)n3c2)cc1
→ 3 | -7
Cc1cc(C)n(CCC(=O)NC(C)c2ccc3c(c2)OCCCO3)c(=O)n1 (stereo unspecified)
→ 5 | 0
CCCOc1ccc(CN)c(OC(F)F)c1
→ -4 | -9
CCC(COC)NC(=O)c1ccc(-c2cc(-c3cccc(C(F)(F)F)c3)n[nH]2)cc1 (stereo unspecified)
→ 4 | 2
O=C(Nc1c(F)cc(F)cc1F)c1sc2ccccc2c1Cl
→ 2 | 1
COCC1CN(C(=O)c2ccc(Oc3cccnc3)cc2)CCO1 (stereo unspecified)
→ 3 | 1
O=C(CNC(=O)c1ccco1)N=Nc1c(O)n(Cc2ccc3c(c2)OCO3)c2ccccc12
→ -4 | -7
O=C(c1cc(Br)cnc1N1CCCCC1)N1CCCC(CO)C1 (stereo unspecified)
→ 3 | 10
COc1ccc(CCOC(=O)[C@@H]2CCCN2C(=O)Nc2ccc(Cl)c(C(F)(F)F)c2)cc1OC
→ 6 | 6
CC(C)Oc1cnn(-c2ccc(Cl)cc2)c(=O)c1Nc1cccc(C(=O)N2CCCC2)c1
→ 7 | 13
CC(C)N(CC(=O)Nc1ccon1)C(=O)c1ccc([N+](=O)[O-])cc1
→ 17 | 13
CC(C)NC(=O)c1cnn2c1NC(c1cccs1)CC2C(F)(F)F (stereo unspecified)
→ -3 | -3
CCOCCC(=O)N1CCN(Cc2ccc(-c3noc(CC(C)C)n3)cc2)CC1
→ -6 | -10
Cc1cccc(Cn2cccc2CN(CCN2CCOCC2)Cc2cccc(F)c2F)c1
→ 2 | 8
CCCCc1c(-c2ccccc2)ncn1C(CC)c1ccnn1C (stereo unspecified)
→ 2 | -3
CCC(NC(=O)c1nn(C)c(=O)c2ccccc12)c1nc(C)c(C)s1 (stereo unspecified)
→ 4 | 2
N#CC(=Cc1ccc(Cl)cc1)C(N)=O
→ 17 | 9
O=C(O)c1c[nH]c2ccc(S(=O)(=O)NCc3cccc(Cl)c3)cc2c1=O
→ -2 | -6
O=C1CN(S(=O)(=O)c2ccc(F)cc2)CC(Cn2c3ccccc3c3ccccc32)O1 (stereo unspecified)
→ -1 | 1
COC(=O)c1sc2nc(CN3CCCC(C)C3)ccc2c1NC(=O)c1ccco1 (stereo unspecified)
→ 30 | 12
COCc1ccc(C(=O)N2CCCN(CC3CC3)C(C(C)C)C2)o1 (stereo unspecified)
→ 8 | 7
N#CC1(NC(=O)CSc2nnnn2C2CC2)CCCC1
→ 10 | 16
O=S(=O)(Nc1nc2c(F)cc(F)cc2s1)c1ccc(F)cc1F
→ 0&8 | -2&9
CC(=O)Oc1c(-c2ccc(N)cc2)c(-c2cccc(C)c2)nn1-c1cccc(F)c1
→ 35 | 29
Cc1ccoc1C(=O)N1CCCN(Cc2noc(C(C)(C)C)n2)CC1
→ 8 | 8
Cc1ccc[n+](C2=C(c3c(C)[nH]n(-c4ccc(F)cc4)c3=O)C(=O)N(Cc3ccc(F)cc3)C2=O)c1
→ 3 | 1
CC(C)(C)CC(=O)N1CCN(c2cc(Oc3ccccc3Cl)ncn2)CC1
→ -9 | -2
COc1ccc(C2=NN(c3nc(-c4ccccc4)c4cc(Cl)ccc4n3)C(c3ccc(OC)cc3)C2)cc1 (stereo unspecified)
→ 19 | 16
Cc1ccc2c(c1)c(N=NC(=O)COc1cc(C(C)C)ccc1C)c(O)n2C
→ 23 | 8
Cc1nc(C)c(C)c(N2CCC(C(=O)NCCCOC(C)C)CC2)n1
→ 5 | 3
CCn1c(SCC(=O)N/N=C\c2ccc(N(C)C)cc2)nc2ccccc21
→ 1 | 3
CCc1nc(C)c(C(=O)NS(=O)(=O)c2ccc(C(C)=O)cc2)s1
→ 1 | -6
O=C(CN1CCOC1=O)N1CCc2[nH]nc(-c3cccc(F)c3)c2C1
→ 20 | 2
CC1CCN(c2ccc(NC(=O)C(C)(C)C)cc2C(=O)NC(C)c2ccccc2)CC1 (stereo unspecified)
→ 17 | 26
CC12CC3CC(C)(C1)CC(NCc1cccnc1)(C3)C2
→ -7 | -10
COCC(=O)NC1CCN(c2ccccc2C(=O)NCc2ccco2)CC1
→ -5 | 2
Fc1ccc(-c2nn[nH]n2)cc1
→ 3&6 | 2&7
Nc1cnc(-c2cccc3ccnn23)cn1
→ 1 | 2

Random excerpt: 4 compounds from above
Screens in order: NPYLR7 ag | NPYLR7 ag max-min
COc1ccc(C2=NN(c3nc(-c4ccccc4)c4cc(Cl)ccc4n3)C(c3ccc(OC)cc3)C2)cc1 (stereo unspecified)
→ 19 | 16
CCn1c(SCC(=O)N/N=C\c2ccc(N(C)C)cc2)nc2ccccc21
→ 1 | 3
CC1CCN(c2ccc(NC(=O)C(C)(C)C)cc2C(=O)NC(C)c2ccccc2)CC1 (stereo unspecified)
→ 17 | 26
CCc1nc(C)c(C(=O)NS(=O)(=O)c2ccc(C(C)=O)cc2)s1
→ 1 | -6

Screening data from PubChem.
